Source: PubChem (National Center for Advancing Translational Sciences (NCATS))
CtBP-E1A blk = blocks the CtBP interaction with E1A | activity change, % (no concentration beside the values) | AID 651724 | actives 0.49% (n = 340,000) | AlphaScreen GST-E1A/His-CtBP binding, 1536-well; hits give low values; control for the full effect not named in the record; in the data active means activity change below about -65%; inconclusive means about -30% to -65%; inactive means above about -30%; also: % is scaled to controls: 0 for no effect and ±100 for the full control effect; compound concentration not given in the record
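In 5 uL wells, 23 nL compound meets equimolar GST-E1A and His-CtBP (5X stock 125 nM each) for 2 h, 37 °C. Beads (5X, 50 ug/mL) then 1 h, 37 °C, dark.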
ClpP mod = qHTS Assay for Activators of ClpP; ATP-dependent Clp protease proteolytic subunit (Bacillus subtilis (strain 168)), P80244; purified B. subtilis ClpP, FRET peptide cleavage, 20 min; Potency, µM (series often up to 57.5 µM), for the others: at the highest dose activity change, negative = active; actives 1.9% (n = 340,000); active = well fitted falling curve with a large enough effect; inconclusive = small, poorly fitted or top-dose-only effect; inactive = no such curve, though single readings can be large or run the other way; also: potency is read from the fitted curve at half-maximal effect; the source files actives as falling curves though it sought activators and does not explain the sign; nearly all actives have a fitted effect of over 65% in size; many hits overshoot -100%
Target sequence (P80244 whole entry, looked up): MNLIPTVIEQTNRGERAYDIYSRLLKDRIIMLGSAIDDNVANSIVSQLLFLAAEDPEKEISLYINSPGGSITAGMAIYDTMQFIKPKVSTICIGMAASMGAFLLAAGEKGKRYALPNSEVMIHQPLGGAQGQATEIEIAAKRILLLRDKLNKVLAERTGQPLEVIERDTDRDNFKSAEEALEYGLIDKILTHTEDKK
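Purified B. subtilis ClpP, 10 microg/mL final in Tris/HCl pH8 with KCl, BSA, glycerol and Tween-20, cleaved an Abz/nitrotyrosine-quenched decapeptide. Fluorescence (ex 320, em 430) was read at 0 and 20 min at room temperature. Delta was normalized to 5.8 microM ADEP and DMSO/no-enzyme controls.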
TRPV1 potentiator = enhances activation of the human vanilloid receptor TRPV1; AID 540277; actives 0.02% (n = 320,000); potentiation, % at 8.33 µM; TRPV1-expressing cells, Fluo-8 calcium influx, capsaicin EC20 potentiation; host cell line not named in the record; control for the full effect not named in the record; active means potentiation above 80%; inconclusive means 30% to 80%; inactive means below 30%; also: 0% is about no effect
Target sequence (Q8NER1 whole entry, looked up): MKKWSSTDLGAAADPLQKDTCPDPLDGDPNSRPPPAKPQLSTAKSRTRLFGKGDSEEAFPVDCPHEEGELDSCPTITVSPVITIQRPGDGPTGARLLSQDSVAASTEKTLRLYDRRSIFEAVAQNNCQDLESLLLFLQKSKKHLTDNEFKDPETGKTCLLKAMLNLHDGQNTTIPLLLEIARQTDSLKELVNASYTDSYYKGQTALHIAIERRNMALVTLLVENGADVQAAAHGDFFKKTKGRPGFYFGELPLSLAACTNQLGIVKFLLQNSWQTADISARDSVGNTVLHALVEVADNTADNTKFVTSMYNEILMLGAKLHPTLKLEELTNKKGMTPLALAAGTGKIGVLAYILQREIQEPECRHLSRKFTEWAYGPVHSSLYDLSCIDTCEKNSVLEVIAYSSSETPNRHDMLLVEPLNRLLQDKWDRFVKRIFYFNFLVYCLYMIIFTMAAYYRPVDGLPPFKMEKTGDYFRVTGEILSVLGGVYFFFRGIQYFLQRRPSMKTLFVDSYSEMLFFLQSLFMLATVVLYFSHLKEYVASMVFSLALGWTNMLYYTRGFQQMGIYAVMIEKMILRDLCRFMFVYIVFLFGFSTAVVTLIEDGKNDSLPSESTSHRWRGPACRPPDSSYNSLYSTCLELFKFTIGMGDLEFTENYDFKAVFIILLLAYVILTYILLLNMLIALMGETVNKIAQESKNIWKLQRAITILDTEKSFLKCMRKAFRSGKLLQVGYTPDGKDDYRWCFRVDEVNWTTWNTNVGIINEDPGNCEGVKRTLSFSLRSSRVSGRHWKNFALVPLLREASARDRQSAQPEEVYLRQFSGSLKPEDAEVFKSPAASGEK
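Cells expressing TRPV1 were dye-loaded with Fluo-8 and read kinetically: 10 s baseline, 3 min after compound (agonist portion), then 2 min after EC20 capsaicin (allosteric enhancer portion). Calcium-bound dye fluorescence at 480/520 nm.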
gsp agonist = activates gsp, the McCune-Albright syndrome mutation. gsp mutant cells, cAMP HTRF, 30 min; control for the full effect not named in the record. Potency, µM (series often up to 76.9 µM), for inactives: top-dose activation (cAMP increase), most hits filed as activators. actives 0.13% (n = 340,000). AID 624287; active = well fitted activation curve with a large enough effect; inconclusive = small, poorly fitted or top-dose-only effect, or another doubt; inactive = no such curve, though single readings can be large or run the other way; cell line not stated here;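 also: phosphodiesterase inhibitor Ro 20-1724 added with compounds to block cAMP breakdown; potency is read from the fitted curve at half-maximal effect; nearly all actives have a fitted effect of over 60% in size; about a fifth of the inactives were tested at one dose only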
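Cells in DMEM/10% FBS with G418 were pretreated with compounds in DMSO plus […] (300 uM stock) for 30 min at 37C. cAMP was measured by HTRF (cAMP-d2 plus anti-cAMP antibody-K) after 30 min at room temperature.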
gsp antagonist = antagonists of gsp mutant (McCune-Albright syndrome) | Potency, µM (titrated, usually from 76.9 µM), without a hit: at the top dose activity change, negative = inhibition, most hits filed as inhibitors | gsp-mutant cells, cAMP HTRF, 30 min; control for the full effect not named in the record | actives 0.4% (n = 340,000); active = falling curve of any shape with a large fitted effect; inconclusive = falling curve, mostly with a smaller effect; inactive = flat or rising curve; cell line not stated here;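 also: intracellular cAMP measured with PDE inhibitor Ro 20-1724 present during compound exposure; potency is read from the fitted curve at half-maximal effect; % is scaled to controls: 0 for no effect and ±100 for the full control effect; nearly all actives have a fitted effect of over 65% in size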
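HTRF cAMP read-out (cAMP-d2 plus anti-cAMP antibody-K in lysis buffer, 30 min RT). Before lysis, cells are exposed to compounds with […] for 30 min at 37C in DPBS containing Ca/Mg, BSA and Tween 20.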
Menin-MLL FL inh = displaces fluorescein MLL peptide from human menin; Fluorescence polarization, fluorescein-MLL peptide displacement from menin; FP activity change, % at 61.4 µM; 290,000 tested, under 10 active; inconclusive = falling polarisation curve, or a change in total fluorescence; inactive = total fluorescence flat and polarisation flat or rising; no compound was filed as active; the % refers to the polarisation; negative = inhibition;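 also: % of control where 0% means no effect; inhibitors lower the polarisation; unlabelled MLL peptide was the positive control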
Sfp PPTase inh = inhibitors of Bacillus subtilis Sfp phosphopantetheinyl transferase; Q9F4F7; Biochemical Sfp PPTase activity, qHTS; Potency, µM, inactives show max response, negative = inhibition, hits mostly inhibitors; actives 3.5% (n = 310,000); AID 1490; active = well fitted inhibition curve with a large enough effect; inconclusive = small, poorly fitted or top-dose-only effect, or another doubt; inactive = no such curve, though single readings can be large or run the other way;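 also: the enzyme is Sfp with the accession as filed and its product quenches rhodamine fluorescence; potency is read from the fitted curve at half-maximal effect; 0% = enzyme reaction without inhibitor and -100% = no enzyme wells; top concentration of the series not given in the record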
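Fluorescence-quenching assay: 15 nM Sfp-PPTase preincubated 15 min at room temperature with compound, then 5 uM rhodamine-CoA and 12.5 uM BHQ-2-labelled YbbR peptide added. Fluorescence (ex 525/em 598 nm) read at start and after 30 min; difference gives rate.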
The depositor's hits bear a star; i = inactive; ? = inconclusive; nt = no result given; [ ] = remark or other dose.

SMILES	CtBP-E1A blk	ClpP mod	TRPV1 potentiator	gsp agonist	gsp antagonist	Menin-MLL FL inh	Sfp PPTase inh
CCOc1ccc(N2CC(C(=O)NCCc3ccc(S(N)(=O)=O)cc3)CC2=O)cc1 (stereo not drawn)	-1.6	nt	10.7	-0.1%	-1.7%	0.5	-6.4%
O=C1c2ccccc2C(=O)N1Cc1ccccn1	6.2	nt	-0.5	-3.3%	11.5%	-1.3	10.3%
COc1ccc(C(=O)N2CC(=O)N(CCc3ccccc3)C(=O)C2)cc1OC	4.9	-0.1%	5.3	25.9%	2.8%	3.4	8.5%
CS(=O)(=O)c1ccc(C(=O)OCc2nnc(-c3ccccc3)o2)cc1[N+](=O)[O-]	-12.5	nt	0.4	1.3%[15.4 µM]	-3.5%	-8.6	5.0%
CC(=O)c1ccccc1C(=O)N1CCCC(CNC(=O)c2ccccc2Cl)C1 (stereo not drawn)	0.3	-2.1%	?	24.0%	3.5%	0.2	17.2%
COC(OC)C1Nc2ccccc2C(=O)N1c1ccc(F)cc1 (stereo not drawn)	-23.8	130.2%	2.6	-11.1%[15.4 µM]	5.6%	nt	nt
CCCn1ncc(CN2CCC(n3nccc3NC(=O)c3ccccc3OC)CC2)c1C	2.9	1.5%	7.5	-1.4%	4.9%	nt	6.7%
CCn1cnc2cc(NCc3ccc(OC)cc3)ccc21	-4.5	?	?	-37.9%	-17.1%	-3.0	-6.8%
O=c1[nH]ccc2c(O)cccc12	2.6	4.6%	nt	nt	2.5%	-0.6	nt
COc1cc2c(cc1OC)-c1cc(OCc3cccnc3)nc(=O)n1CC2	?	-18.8%	-14.4	26.2%	15.4%	4.1	22.5%
CC1=C(C#N)C(c2cccnc2)C2=C(CCCC2=O)N1 (stereo not drawn)	3.0	8.91µM*	-7.0	2.1%	9.1%	-1.5	5.6%
O=C(CSc1ccc2nnc(-c3cccc(F)c3)n2n1)NCC1CCCO1 (stereo not drawn)	2.7	?	6.3	?	-3.5%	1.1	?
Cc1nc2ccc(NC(=O)Cc3ccc4c(c3)OCCO4)cc2s1	-17.3	-3.9%	5.1	-4.7%	4.0%	2.4	7.9%
CCCNc1nc(-c2cc(-c3ccc(Cl)cc3)on2)cc(C(C)C)n1	-16.8	?	15.8	9.1%	11.0%	-1.1	-11.2%
CSc1sc(C(=O)O)c(C)c1C(C)=O	1.1	?	-7.2	1.6%	5.1%	-2.5	7.1%
COc1ccc(NS(=O)(=O)c2cccc(C(=O)Nc3ccccc3C(=O)O)c2)cc1	-1.3	0.6%	1.6	-105.3%	-11.9%	-0.3	17.5%
CCOc1ccccc1/C=N/n1c(C2CCCCC2)n[nH]c1=S	-10.4	-1.7%	-3.5	?	?	6.8	-26.1%
CC(=O)Nc1cccc(NC(=O)Cc2ccc3ccccc3c2)c1	3.3	1.0%	-28.0	4.2%[15.4 µM]	0.8%	0.3	8.1%
Cc1cc(C)c(S(=O)(=O)NCC(c2cccnc2)N2CCN(Cc3ccccc3)CC2)c(C)c1 (stereo not drawn)	nt	2.1%	1.7	2.5%	-8.4%	-0.5	-10.6%
CCCN(CCC)CCCNC(=O)c1cn(CC)c2ccc(S(=O)(=O)N3CCc4ccccc4C3)cc2c1=O	11.8	0.2%	-5.4	15.1%	11.0%	-0.4	2.6%
COc1ccc(N2CCN(C(=O)CCc3cc(OC)c(OC)c(OC)c3)CC2)cc1	nt	-1.7%	3.6	-14.7%	3.5%	-3.6	4.9%
O=C(Cc1cccc(NC(=O)C2CCCN(C(=O)c3ccccc3)C2)c1)Nc1ccc(C(=O)N2CCOCC2)cc1 (stereo not drawn)	4.6	1.0%	nt	nt	5.2%	nt	nt
CCN1CCN(c2ccc(NC(=O)c3ccccc3F)cc2Cl)CC1	5.4	0.3%	-9.0	-2.2%[15.4 µM]	-4.3%	-2.0	11.4%
CCS(=O)(=O)NCC(c1cccnc1)N1CCN(c2ccccc2F)CC1 (stereo not drawn)	4.9	?	0.2	?	-0.9%	3.0	13.9%
O=C(O)Cn1c(CC(=O)N2CCCC2)nc2ccccc21	-6.3	-0.1%	0.7	27.0%	4.6%	4.5	14.0%
COc1cc2c(cc1OC)C1O[C@](CCCCN3C(=O)c4ccccc4C3=O)(C2)Oc2c1c(=O)oc1ccccc21	nt	nt	i	nt	nt	-0.5[11.7 µM]	-10.8%
COc1ccc(CCNC(=O)C2CCCN(c3nn4c(=O)cc(C)nc4s3)C2)cc1OC (stereo not drawn)	3.2	-0.8%	-0.3	14.6%	4.4%	-1.1	-1.6%
CN(C)c1ccc(/C=N/NC(=S)NCc2ccccc2)cc1	?	17.8µM*	29.7	19.6%	-6.4%	-6.5	27.0%
CCN(CC(=O)NCCc1ccc(Cl)cc1)Cc1nc2ccccc2c(=O)[nH]1	-7.8	nt	-12.2	-8.6%[15.4 µM]	-1.1%	3.5	-3.4%
C=CCn1c(SCC#N)nnc1-c1ccc2ncccc2c1	5.4	-0.2%	-3.4	-22.4%	1.4%	3.3	22.5%
CCCCN1C(=O)C(CC(=O)NC2CCCCC2)CC(C(=O)N(CC)CC)=C1C (stereo not drawn)	-3.0	-1.6%	nt	11.3%	nt	nt	nt
COc1ccccc1-n1c(SCC(=O)NC(C)(C)C)nc(O)c(Cc2ccccc2)c1=O	-8.5	2.8%	4.0	-2.1%	-13.0%	2.3	15.2%
COc1ccc(-c2nc(C#N)c(N3CCc4ccccc4C3)o2)cc1OC	?	?	-1.1	-68.5%[inhibitor]	-15.5%	-1.7	4.3%
CCC(=O)NCC(=O)OCC(=O)c1ccccc1	6.7	1.4%	29.9	16.4%	5.3%	-1.9	-0.4%
O=C1O[C@@H](c2ccc(O)cc2)Cc2cccc(O)c21	1.2	-6.3%	19.9	nt	-7.9%	nt	nt
CN(C)S(=O)(=O)c1ccc(NC(=O)CN2CCN(C(c3ccccc3)c3ccccc3)CC2)cc1	-2.7	2.5%	28.1	-14.4%	4.3%	1.6	16.0%
CCc1c(O)nc(SCC(=O)NCc2ccco2)[nH]c1=O	-3.6	-3.8%	-1.9	4.5%	-8.4%	2.0	6.3%
COC(=O)C1=C(COc2ccc(C=O)cc2OC)NC(=O)NC1c1cc(C)ccc1C (stereo not drawn)	27.5	-1.5%	14.4	-29.2%	-5.2%	4.4	-14.3%
CCOc1ccc(Nc2oc(-c3ccccc3Cl)nc2C#N)cc1	4.2	?	5.7	-30.0%	5.5%	-0.9	-20.2%
Cc1nnc(N/N=C/c2cccc(OCc3ccc(Cl)c(Cl)c3)c2)n1N	13.3	-14.5%	-6.6	?	-15.8%	-1.8	70.8µM*
CCOC(=O)c1c(N)sc2c(OCC)c(Br)ccc12	-0.1	-1.3%	0.7	-2.9%	1.2%	7.0	23.9%
COc1ccc(CNC(=O)CN(Cc2ccc(Cl)cc2)S(C)(=O)=O)cc1	-4.6	-2.6%	-1.1	-55.7%[inhibitor]	-10.7%	1.6	-8.0%
OC(CNc1ccccc1)Cn1ccc2ccccc21 (stereo not drawn)	2.8	0.1%	-1.1	-4.6%[15.4 µM]	3.6%	0.2	-29.4%
COCCNc1nc2c(c(=O)[nH]c(=O)n2C)n1CCCc1ccccc1	2.7	0.2%	0.6	-0.9%[15.4 µM]	4.2%	-2.4	6.5%
CCO[C@H]1OC(C(=O)N2CCOCC2)=C[C@@H](c2ccc(Br)cc2)[C@@H]1CCCO	3.9	1.1%	-3.6	nt	-2.3%	9.2	2.8%
Cc1ccsc1/C=C(\C(=O)c1ccc(OC(C)C)cc1)c1nc2ccccc2o1	-28.2	nt	17.6	14.0%[15.4 µM]	-6.3%	-1.4	6.5%
CC(C)(C)OC(=O)C[C@H]1C/C=C\C[C@@H](CC(=O)N[C@@H](CO)Cc2ccccc2)C(=O)NCCOC1=O	5.7	-0.4%	nt	nt	4.0%	nt	nt
Cc1cc(O)c(C(C)C)cc1C1(c2cc(C(C)C)c(O)cc2C)OC(=O)c2ccccc21	-1.4	nt	-12.1	5.8%	?	0.7	35.3%[activator]
O=C(/C=C/c1c(Cl)cccc1Cl)NCCc1ccccc1	4.8	-0.1%	-5.5	-18.9%	10.3%	-0.6	18.7%
O=c1c([N+](=O)[O-])c(O)c2cccc3c2n1CCC3	0.0	nt	4.4	?	4.4%	-15.2	-21.1%
CCC(=O)C1CCCN(C(=O)c2ccc(OC3CCN(C(=O)c4cccnc4)CC3)cc2)C1 (stereo not drawn)	-8.8	nt	2.6	-3.3%[15.4 µM]	5.4%	1.0	9.8%
COc1ccc(C(CNC(=O)c2ccc(-c3ccccc3)cc2)N(C)C)cc1OC (stereo not drawn)	-2.4	nt	2.1	1.0%[15.4 µM]	7.9%	1.3	-0.8%
CC(=O)n1nc(-c2ccc(C)cc2)nc1NCc1ccc(F)cc1	0.2	nt	21.9	-3.2%[15.4 µM]	-29.9%	-1.1	8.5%
CCN(CC)CCNC(=O)c1cc2ccccc2nc1Cl	nt	-2.4%	1.9	-4.5%	5.5%	-0.1	-15.0%
COc1c(Cl)cc(C(=O)NCc2ccco2)cc1Cl	2.8	-0.4%	-28.5	-49.4%[inhibitor]	-0.8%	-4.3	-3.3%
CCOC(=O)c1cccc(NC(=O)c2ccccc2C)c1	nt	-2.0%	19.4	1.2%	1.9%	-3.1	16.9%
Cc1nc(SCC(=O)Nc2ccc3c(c2)OCCO3)nc(C)c1C	17.7	20µM*	2.3	-7.0%[15.4 µM]	-21.8%	0.8	?
CCCCN1C[C@H](O)[C@@H](O)[C@H](O)[C@H]1CO	7.8	0.5%	5.5	nt	0.4%	0.5	-7.8%
COc1ccc(CC(=O)Nc2cc(S(=O)(=O)N3CCCCC3)ccc2C)cc1	1.6	1.1%	-4.6	-2.3%	-28.5%	nt	nt

The order is random. Share with any hit: about 5.3%.
